Choline anaer gr: choline-fed anaerobic bacterial growth inhibition; Gram-negative bacterium anaerobic choline minimal medium, absorbance growth; hits give low values; many inactives read as strong as hits in the columns shown; calls only; hit rate 0.2% among 55,000; AID 1963822;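 active = growth z-score on choline under -2 at 7 or 20 h with little or no fall on glycerol, limits in tiers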;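 note: stock transfer was 300 nL into about 50 µL; the organism is E. coli; final concentration not given here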
Choline anaer gr early: further read-out of Choline anaer gr, marked with its call; z-score; measured here: choline growth z-score, timepoint 1;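 score of optical density at 7 h as mean of two plates; lower means less growth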
Numbers without * were called inactive; i = inactive; & = joins results of further samples.

#	canonical_smiles	Choline anaer gr	Choline anaer gr early
1	CN(C)CCC[C@@]1(c2ccc(F)cc2)OCc2cc(C#N)ccc21	i	-0.3&0.31&0.66
2	Cc1ccc(Nc2c(F)cccc2Cl)c(CC(=O)O)c1	i	0.76&0.68
3	C=CCN(Cc1nc(-c2cccc(C)c2)no1)C(=O)Nc1ccc(C)cc1	i	0.83
4	CCCCOC(=O)c1ccc(N)cc1	i	0.03
5	Cc1nc2c([nH]1)c(=O)n(C)c(=O)n2Cc1ccco1	i	-1.4&0.45
6	O=c1[nH]c(-c2ccc(C(F)(F)F)cc2)nc2c1CSCC2	i	0.04
7	CC1(C(=O)NC2CC2)CC(c2ccccc2)=NO1 (stereo unspecified)	i	-0.79
8	COc1ccc(Cn2c(CCC(=O)Nc3cccc(OC)c3)nc3cccnc32)cc1	i	1.2
9	Cc1c(F)cccc1NS(=O)(=O)c1cc(-c2nc(C(C)(C)C)cs2)cs1	i	0.16
10	Cn1cc(-c2ccccc2)c2c1c(=O)n(C)c1nn(Cc3nc(-c4ccccc4)no3)c(=O)n21	i	-0.3
11	CN1CCC(=C2c3ccccc3CC(=O)c3sccc32)CC1	i	0.63&0.55&-0.37&-0.45
12	CN1CCN(c2c(F)cc3c(=O)c(C(=O)O)cn4c3c2SCC4)CC1	i	-2.3&-2.8&-2.4&-2.9
13	Cc1[nH]c(/C=C2\C(=O)Nc3ccccc32)c(C)c1CCC(=O)O	i	0.62
14	Cc1oncc1C(=O)Nc1ccc(C(F)(F)F)cc1	i	0.41&0.01&-0.09
15	CCN1CC(CCN2CCOCC2)C(c2ccccc2)(c2ccccc2)C1=O (stereo unspecified)	i	-0.08&0.22

Retrieved by structure from the entries so far (2):
#	canonical_smiles	Choline anaer gr	Choline anaer gr early
13	Cc1[nH]c(/C=C2\C(=O)Nc3ccccc32)c(C)c1CCC(=O)O	i	0.62
11	CN1CCC(=C2c3ccccc3CC(=O)c3sccc32)CC1	i	0.63&0.55&-0.37&-0.45

A run of entries from further up:
#	canonical_smiles	Choline anaer gr	Choline anaer gr early
1	CN(C)CCC[C@@]1(c2ccc(F)cc2)OCc2cc(C#N)ccc21	i	-0.3&0.31&0.66
2	Cc1ccc(Nc2c(F)cccc2Cl)c(CC(=O)O)c1	i	0.76&0.68

Compound profiles (already shown). Values in the order: Choline anaer gr	Choline anaer gr early
`CCCCOC(=O)c1ccc(N)cc1` in the list: i	0.03
`Cn1cc(-c2ccccc2)c2c1c(=O)n(C)c1nn(Cc3nc(-c4ccccc4)no3)c(=O)n21` in the list: i	-0.3
`CC1(C(=O)NC2CC2)CC(c2ccccc2)=NO1` (stereo unspecified) in the list: i	-0.79
`Cc1ccc(Nc2c(F)cccc2Cl)c(CC(=O)O)c1` in the list: i	0.76&0.68

Further entries follow:
#	canonical_smiles	Choline anaer gr	Choline anaer gr early
16	O=C(NCCN1CCOCC1)c1ccc(Cl)cc1	i	0.27&0.03&-0.17
17	NC(=O)c1ccc(-c2nc(-c3ccc4c(c3)OCO4)c(-c3ccccn3)[nH]2)cc1	i	-0.22&-0.39&0.46
18	CN1CCN(CCCN2c3ccccc3Sc3ccc(S(=O)(=O)N(C)C)cc32)CC1	i	1
19	O=c1cc(N2CCOCC2)nc2c3ccccc3ccn12	i	0.83
20	O=C(O)CCCCCCCC(=O)O	i	-0.11
21	CN(C)C(CNC(=O)c1cc(-c2ccc3c(c2)OCCO3)on1)c1ccc(Cl)cc1 (stereo unspecified)	i	0.88
22	CCc1nc(-c2cc(S(=O)(=O)Nc3ccc(F)cc3Cl)c(C)s2)cs1	i	-0.97
23	CCOC(=O)C(CCc1ccccc1)NC(C)C(=O)N1C(=O)N(C)CC1C(=O)O (stereo unspecified)	i	0.5
24	COc1cc(N2CCC(N(C)C)CC2)ccc1Nc1ncc(Cl)c(Nc2ccccc2P(C)(C)=O)n1	i	1
25	Nc1cc(=O)[nH]c(N)n1	i	0.64
26	CCCN(CCC)C(=O)C(CCC(=O)O)NC(=O)c1ccccc1 (stereo unspecified)	i	-0.34&0.3
27	Cc1ccc(NS(=O)(=O)c2cc(-c3nc(C(C)(C)C)cs3)cs2)c(F)c1	i	1.6
28	CN(C)CCOC(=O)C(c1ccccc1)C1(O)CCCC1 (stereo unspecified)	i	0.46
29	CC(=O)O[C@@]12CO[C@@H]1C[C@H](O)[C@@]1(C)C(=O)[C@H](O)C3=C(C)[C@@H](OC(=O)[C@H](O)[C@@H](NC(=O)OC(C)(C)C)c4ccccc4)C[C@](O)([C@@H](OC(=O)c4ccccc4)[C@H]21)C3(C)C	i	0.67
30	COc1ccc([C@@H]2CNC(=O)C2)cc1OC1CCCC1	i	0.71

Individual results from the results shown.
Entry of O=c1cc(N2CCOCC2)nc2c3ccccc3ccn12 under Choline anaer gr early: 0.83
Entry of Cc1ccc(NS(=O)(=O)c2cc(-c3nc(C(C)(C)C)cs3)cs2)c(F)c1 under Choline anaer gr early: 1.6

Additional entries
#	canonical_smiles	Choline anaer gr	Choline anaer gr early
31	CN1CCC(Nc2ncc3ncnc(Nc4ccc(F)c(Cl)c4)c3n2)CC1	i	-1.1
32	OCC(O)CN1CCN(c2ccccc2)CC1 (stereo unspecified)	i	0.84&0.09&0.73
33	C[C@@H]1CC(=O)NN=C1c1ccc(NN=C(C#N)C#N)cc1	i	-0.07
34	CC(=O)N1CCOc2ccc(S(=O)(=O)N3CCCC3C(=O)Nc3nccs3)cc21 (stereo unspecified)	i	-0.45
35	CN=C(NC#N)Nc1ccc(C2=NNC(=O)CC2C)cc1 (stereo unspecified)	i	0.69&-0.16&-1.4
36	COc1ccc(-n2nnc(-c3nc(-c4cc(OC)ccc4OC)cs3)c2N)cc1	i	-1.6
37	CN1CCN(c2cc3c(cc2F)c(=O)c(C(=O)O)cn3-c2ccc(F)cc2)CC1	i	-3.1
38	Cc1nc2cc(-c3noc(CNC(=O)c4ccccc4)n3)ccc2n(C)c1=O	i	0.85
39	Cc1cc(NC(=O)Cn2nc3c(Oc4ccccc4C)nc4ccccc4n3c2=O)ccc1Br	i	-0.28
40	OCCOCCN1CCN(C(c2ccccc2)c2ccc(Cl)cc2)CC1 (stereo unspecified)	i	-0.06&1
41	Cc1sc(-c2cc(C(F)(F)F)on2)cc1S(=O)(=O)NCCc1cccs1	i	0.95
42	c1ccc2c(Oc3nc(Nc4ccc(N5CCOCC5)cc4)c4ncn(C5CCCCC5)c4n3)cccc2c1	i	1
43	CC(=O)O[C@@]12CO[C@@H]1C[C@H](O)[C@@]1(C)C(=O)[C@H](O)C3=C(C)[C@@H](OC(=O)[C@H](O)[C@@H](NC(=O)OC(C)(C)C)c4ccccc4)C[C@@](O)([C@@H](OC(=O)c4ccccc4)[C@H]21)C3(C)C	i	0.8
44	Fc1ccc(-c2nc3cnc(Br)cn3c2Nc2ccc3c(c2)OCCO3)cc1	i	-0.62
45	COc1ccc(-c2oc3c(CC=C(C)C)c(OC4OC(CO)C(O)C(O)C4O)cc(O)c3c(=O)c2OC2OC(C)C(O)C(O)C2O)cc1 (stereo unspecified)	i	0.87

New compounds follow.
#	canonical_smiles	Choline anaer gr	Choline anaer gr early
46	O=C1COc2cc(S(=O)(=O)N3CCC(C(=O)NC4CCCC4)CC3)c(Cl)cc2N1	i	0.8
47	CCN(CC)CCOC(=O)C(c1ccccc1)c1ccccc1	i	0.78&0.18
48	CCOC(=O)Nc1ccc(NCc2ccc(F)cc2)nc1N	i	-0.14&-0.44
49	CN(C)C(=N)N=C(N)N	i	0.26&-0.04
50	COC(=O)Nc1nc2ccc(S(=O)c3ccccc3)cc2[nH]1 (stereo unspecified)	i	0.97&0.45
51	O=C(OC1C[C@@H]2CC3C[C@H](C1)N2CC3=O)c1c[nH]c2ccccc12 (stereo partly specified)	i	-0.46
52	CCCc1cc(C(N)=S)ccn1	i	0.42&0.44
53	O=C1CCc2cc(OCCCCc3nnnn3C3CCCCC3)ccc2N1	i	0&0.3&-0.35
54	CC(C)(C(=O)c1cccnc1)c1cccnc1	i	0.24
55	CN(CCOc1ccc(NS(C)(=O)=O)cc1)CCc1ccc(NS(C)(=O)=O)cc1	i	-0.46&0.68&-1&-0.18
56	Fc1ccc(-c2nc(-c3ccc4nncn4c3)no2)cc1F	i	-1.1
57	Cc1cc2c(cc1S(=O)(=O)N1CCCC1C(=O)NC1CCCC1)OC(C)C(=O)N2 (stereo unspecified)	i	-1.2
58	COc1cc(C)nc(-n2nc(C)cc2OC)n1	i	-0.46
59	CC(=O)Nc1nc(N2CCC(C(=O)NCc3ccccc3)CC2)sc1C(=O)N1CCCC1	i	-0.88
60	CC1CCc2c(N3CCC(O)CC3)c(F)cc3c(=O)c(C(=O)O)cn1c23 (stereo unspecified)	i	-2.3&-2.8&-3.6

More structures follow.
#	canonical_smiles	Choline anaer gr	Choline anaer gr early
61	CCCCN(CCCC)CC(O)c1cc(Cl)cc2c1-c1ccc(Cl)cc1/C2=C/c1ccc(Cl)cc1 (stereo unspecified)	i	0.32
62	O=C(c1ccccc1)c1ccc2n1CCC2C(=O)O (stereo unspecified)	i	0.71&-0.35&0.29
63	Cc1ccc(C(=O)C(C)CN2CCCCC2)cc1 (stereo unspecified)	i	0.63
64	CCOC(=O)Nc1ccc2c(c1)N(C(=O)CCN1CCOCC1)c1ccccc1S2	i	-0.13
65	O=S(=O)(c1cc(-c2nnc(-c3ccc(F)cc3)o2)ccc1Cl)N1CCOCC1	i	-0.01
66	CC(C)(CO)[C@@H](O)C(=O)NCCCO	i	0.1
67	Cc1ccc(CNC(=O)C2(C)CCCN(C(=O)NC(C)C)C2)cc1 (stereo unspecified)	i	-0.83
68	CCOc1ccc(Nc2nc(-c3c(C)nc4ccccn34)cs2)cc1	i	0.37
69	Cc1sc(C)c(S(=O)(=O)Nc2ccccc2F)c1-c1cc(C(F)(F)F)on1	i	-3.1
70	C#C[C@]1(O)CC[C@H]2[C@@H]3CCC4=CC(=O)CC[C@@H]4[C@H]3CC[C@@]21CC	i	0.37&0.56
71	O=C(NC1CCc2ccccc21)C1CCN(Cc2noc(-c3ccc(F)cc3)n2)CC1 (stereo unspecified)	i	-0.07
72	COc1ccc(-c2noc(-c3nn(-c4cccc(F)c4)ccc3=O)n2)cc1OC	i	-1.5
73	Cc1ccsc1/C=C/C1=NCCCN1C	i	0.11
74	Cc1cccc(NC(=O)C2CCCN2S(=O)(=O)c2cccc3nsnc23)n1 (stereo unspecified)	i	0.63
75	CC[C@]12CCCN3CCc4c(n(c5ccccc45)[C@@](O)(C(=O)OC)C1)[C@@H]32	i	0.27

Other entries.
#	canonical_smiles	Choline anaer gr	Choline anaer gr early
76	CCNC(=O)N1CCCN(S(=O)(=O)CC)CC1	i	0.03
77	CN1C(=O)CC(C)(c2ccccc2)C1=O (stereo unspecified)	i	-0.2
78	Cc1nc(C2CCCN2Cc2ccc(F)cc2F)n[nH]1 (stereo unspecified)	i	0.89
79	Nc1nc(CC(=O)Nc2ccc(CCNCC(O)c3ccccc3)cc2)cs1 (stereo unspecified)	i	0.72
80	Cn1cnc2c(F)c(Nc3ccc(Br)cc3F)c(C(=O)NOCCO)cc21	i	1.1
81	CCC(Cc1c(I)cc(I)c(N)c1I)C(=O)O (stereo unspecified)	i	0.18
82	CC(=O)O[C@]12COC1CC(O)[C@]1(C)C(=O)C(O)C3=C(C)C(OC(=O)C(O)C(NC(=O)OC(C)(C)C)c4ccccc4)C[C@](O)(C(OC(=O)c4ccccc4)C21)C3(C)C (stereo partly specified)	i	-0.22

Assay outcomes deposited in PubChem BioAssay by ICCB-Longwood Screening Facility, Harvard Medical School.

Only part of the results is shown (hit frequency here may not be typical).
